Source: PubChem BioAssay
HSD17B inh: blocks hydroxysteroid 17-beta dehydrogenase activity. Q99714. recombinant HSD17B10, NADH fluorescence kinetic; many of its hits are not listed in these tables. Potency, µM (top dose mostly 57.1 µM), without a hit: top-dose activity change, negative = inhibition, hits mostly inhibitors. actives 7.6% (n = 75,000). AID 893; active = well fitted inhibition curve with a large enough effect; inconclusive = small, poorly fitted or top-dose-only effect; inactive = no such curve, though single readings can be large or run the other way;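 note: the protocol describes HADH2 (HSD17B10) and not the HSD17B4 of the title; nearly all actives have a fitted effect of over 70% in size; most hits overshoot -100% by far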
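Enzyme plus compound, 15 min room temperature; substrate mix added (NAD+ 1 mM, beta-hydroxybutyryl-CoA 90 uM final); plates read kinetically for NADH fluorescence. HADH2 was His-tagged, E. coli-derived, 20 nM.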
An asterisk follows results filed as active; ? = inconclusive; [ ] = another dose, or the depositor's remark. % is set by controls: 0 for no effect and ±100 for the full control effect; potency is the fitted concentration of half-maximal effect.

SMILES | HSD17B inh
Cc1ccc(S(=O)(=O)C(C#N)c2nc3ccccc3nc2N2CCC(C)CC2)cc1 (stereo not drawn) | -15%
COC(=O)c1cccc(NC(=O)Cn2nnc3ccccc32)c1 | 1%
O=C(O)CCCC(=O)Nc1nc(-c2ccc(F)cc2)cs1 | -5%
CC(C)(C)c1cc(C(=O)O)c(CN2CCCCC2)o1 | 9%
O=C(Nc1ccc2c(c1)CCC2)C1CCN(c2c3c(nc4ncnn24)CCC3)CC1 | -24%
COc1cccc(-c2nc(CS(=O)(=O)CC(=O)N3CCN(C4CCCCC4)CC3)c(C)o2)c1 | 3%
CCOc1cc(S(=O)(=O)NCC2OCCc3ccccc32)c(OCC)cc1-n1cnnn1 (stereo not drawn) | 25µM*
O=C(Nc1ccc2nc(-c3cccs3)[nH]c2c1)c1ccco1 | ?
Cc1cccc([N+](=O)[O-])c1C(=O)O | -2%
COCCN1Cc2cccc(C(=O)N3CCN(c4cc(C)ccc4C)CC3)c2C1=O | -28%

Individual results from the entries so far:
For HSD17B inh, O=C(Nc1ccc2c(c1)CCC2)C1CCN(c2c3c(nc4ncnn24)CCC3)CC1 is listed with -24%
For HSD17B inh, Cc1ccc(S(=O)(=O)C(C#N)c2nc3ccccc3nc2N2CCC(C)CC2)cc1 (stereo not drawn) is listed with -15%

(listing goes on)
SMILES | HSD17B inh
O=C(O)C1CSC2(CCN(Cc3ccccc3)CC2)N1 (stereo not drawn) | 3%
CCCCNC(=O)CSc1nccn1Cc1ccccc1 | 2%
CNc1nc(Nc2ccc(C(C)=O)cc2)nc(OC(C(F)(F)F)C(F)(F)F)n1 | -9%
CC(=O)c1cccc(NC(=O)COc2ccccc2)c1 | -12%
O=C1c2c(O)cc(O)cc2O[C@@H](c2ccc(O)c(O)c2)[C@H]1O | 6%
Cc1ccc(Nc2nc(C(=O)N3CCC(C(=O)NCCN4CCOCC4)CC3)cs2)cc1 | -22%
Cc1c(C(=O)NCC2CCCO2)oc2ccc3c(c12)C(=O)CC(C)(C)O3 (stereo not drawn) | ?
COC(=O)Cc1c(C)nc2nc(-c3cccnc3)[nH]n2c1=O | 3%
O=C(Cn1cccc1)Nc1ccc(F)cc1F | 3%
Cc1ccc(C(=O)Cn2c(NCCO)nc3ccccc32)cc1 | 5%

The closing 6 records of the section above come first, to join the parts:
SMILES | HSD17B inh
O=C1c2c(O)cc(O)cc2O[C@@H](c2ccc(O)c(O)c2)[C@H]1O | 6%
Cc1ccc(Nc2nc(C(=O)N3CCC(C(=O)NCCN4CCOCC4)CC3)cs2)cc1 | -22%
Cc1c(C(=O)NCC2CCCO2)oc2ccc3c(c12)C(=O)CC(C)(C)O3 (stereo not drawn) | ?
COC(=O)Cc1c(C)nc2nc(-c3cccnc3)[nH]n2c1=O | 3%
O=C(Cn1cccc1)Nc1ccc(F)cc1F | 3%
Cc1ccc(C(=O)Cn2c(NCCO)nc3ccccc32)cc1 | 5%
O=C(CSc1ccc(Cl)cc1)N1CCOCC1 | 10%
Cc1ccc(OCCn2nc3ccccc3n2)c(C)c1 | -6%
CN(C)C(=O)c1ccc(-c2cc(Nc3ccccc3)ncn2)cc1 | 3%
Cc1cc2c(cc(C(=O)OCC(=O)NCc3cccs3)n2C(C)C)o1 | -13%
Cc1cc(O)c(C=O)c(O)c1C(=O)O | -9%
Cc1cc(C)n(-c2nc3ccccc3nc2Nc2ccc3[nH]c(=O)[nH]c3c2)n1 | 2%
CCOC(=O)C1CCCN(CCC(=O)Nc2c(C(=O)OC)[nH]c3cc(OC)ccc23)C1 (stereo not drawn) | ?
Cn1cccc1C(=O)N1CCC[C@@]2(CCN(Cc3ccc(C#N)cc3)C2)C1 | -1%
CCn1cc(/C=C(/C#N)S(=O)(=O)c2ccccc2)cn1 | -1%
Cc1ccc(S(=O)(=O)NCC(=O)NC2CCCCCC2)cc1 | 6%
Fc1ccc(CN2CCCCCCC2)cc1F | 4%
N#Cc1nc(COc2ccccc2F)oc1NCCc1ccccc1 | -11%
Cc1nc(CN2CCN(C(=O)NC3(c4ccccc4)CC3)CC2)cs1 | 1%
CC(=O)c1cccc(NC(=O)c2cnn3ccccc23)c1 | -2%
O=C(Nc1ccccc1)N1CC2(CCN(C(=O)c3cc(C(F)(F)F)cc(C(F)(F)F)c3)CC2)C1 | -1%
O=C(COC(=O)c1cccs1)NCc1ccccc1 | 13%
COc1ccc(Cl)cc1NC(=O)CN(C1CCCCC1)S(C)(=O)=O | -16%
COc1ccc(NC(=O)NS(=O)(=O)c2ccc(C)cc2)c(OC)c1 | -3%
Cn1c(CN2CCC(C(N)=O)CC2)c(C#N)c2ccccc21 | ?
Cc1cc2c3c(c1)C1(C(=O)N3C(C)(C)CC2C)C(C#N)=C(N)Oc2n[nH]c(C)c21 (stereo not drawn) | -3%

4 compounds already listed, arranged by number of heavy atoms, low to high:
SMILES | HSD17B inh
Fc1ccc(CN2CCCCCCC2)cc1F | 4%
O=C(COC(=O)c1cccs1)NCc1ccccc1 | 13%
COc1ccc(Cl)cc1NC(=O)CN(C1CCCCC1)S(C)(=O)=O | -16%
O=C(Nc1ccccc1)N1CC2(CCN(C(=O)c3cc(C(F)(F)F)cc(C(F)(F)F)c3)CC2)C1 | -1%

Remaining list, next part:
SMILES | HSD17B inh
COc1ccc(CNc2ccnc(-c3c(C)noc3C)n2)c(OC)c1 | -14%
CC(c1ccco1)N(C(=O)COc1ccc(Cl)cc1Cl)c1ccccn1 (stereo not drawn) | 0%
CS(=O)(=O)N1CCN(C(=O)C(Sc2ccccc2)c2ccccc2)CC1 (stereo not drawn) | 7%
COc1cccc(NC(=O)Cn2cc3c(n2)CCCCC3)c1 | 2%
Cc1nn2c(-c3ccccc3)c(-c3ccccc3)nc2[nH]c1=O | -14%
CC(C)Cn1cnc2c1c(=O)n(CC(=O)Nc1ccc3c(c1)OCO3)c(=O)n2Cc1ccccc1 | -23%
CC(C)(C)c1csc(NC(=O)CSc2nc3ccccc3c(=O)[nH]2)n1 | -1%
COCON1C(=O)CN(C(C)=O)C1c1ccc(Cl)cc1Cl (stereo not drawn) | 4%
Cc1ccc(C(C#N)N2CCOCC2)cc1 (stereo not drawn) | -3%
COc1ccc(C(=O)N2CCCC(c3nc(-c4cc(OC)c(OC)c(OC)c4)no3)C2)cc1 (stereo not drawn) | 4%

Of the compounds above, two have two or more sulfur atoms.
SMILES | HSD17B inh
CS(=O)(=O)N1CCN(C(=O)C(Sc2ccccc2)c2ccccc2)CC1 (stereo not drawn) | 7%
CC(C)(C)c1csc(NC(=O)CSc2nc3ccccc3c(=O)[nH]2)n1 | -1%

Following part:
SMILES | HSD17B inh
COC(=O)[C@@]1(Cc2ccc(F)cc2)[C@H]2c3cc(C(=O)N4CCCC4)n(Cc4ccc(C)c(F)c4F)c3C[C@H]2CN1C(=O)c1ccccc1 | -6%
CCOC(=O)C1CCCN(C(=O)c2cc3nc(-c4cccc(OC)c4)cc(C(F)(F)F)n3n2)C1 (stereo not drawn) | ?
CCOC(=O)C1CCCN(C(=O)C2CCN(S(=O)(=O)CC)CC2)C1 (stereo not drawn) | 4%
CN(C)c1ccc(C2N(c3ccc(Cl)cc3)C(=O)C3CCCN32)cc1 (stereo not drawn) | 0%
Cn1c(-c2ccccc2)cnc1SCC(N)=O | 7%
COc1cc(OC)cc(-n2nnnc2SCC(=O)NCc2ccc3c(c2)OCO3)c1 | -9%
COc1ccc2[nH]c(C)c(C(=O)CN(C)C)c2c1 | 2%
Nc1nc(Cn2nnc(-c3ccccc3F)n2)nc(N2CCOCC2)n1 | -3%
O=C(CCCC(=O)N(CC(=O)NC1CCCCC1)Cc1ccc2c(c1)OCO2)Nc1ccccn1 | -1%
O=C(COC(=O)c1ccc(NS(=O)(=O)c2ccc3c(c2)OCCO3)cc1)NCC1CCCO1 (stereo not drawn) | 1%
CCn1nnnc1-c1ccc(OC)c(S(=O)(=O)Nc2ccc(C(=O)OC)cc2)c1 | -3%
CCc1ccc2oc(-c3cc(N)ccc3O)nc2c1 | -9%
CCS(=O)(=O)Nc1ccc(Cc2ccncc2)cc1 | -2%
Cc1csc2ncc(C(=O)Nc3ccccc3F)c(=O)n12 | ?
CS(=O)(=O)NCc1nnc(SCc2ccccc2C(F)(F)F)o1 | -4%
O=C(NCc1cccs1)c1cc2c(s1)CCCC2 | -1%
O=C(Nc1ccccc1)N1CC[C@@]2(CCCN(C(=O)c3cnccn3)C2)C1 | 0%
COc1ccc(NC(=O)c2sc(SC)nc2N)cc1 | -3%
O=C(CCN1C(=O)c2ccccc2C1=O)Nc1ccc(-c2nc3ccccc3o2)cc1 | 14%
CC(C)C(=O)Nc1cccc(NC(=O)c2cccnc2)c1 | 1%
COc1ccc(C(C)C(=O)c2ccc(O)cc2O)cc1 (stereo not drawn) | -3%
O=C(c1ccc(NC2=NC3CS(=O)(=O)CC3S2)cc1)N1CCN(C(=O)c2ccco2)CC1 (stereo not drawn) | 7%
Cn1cc(CN2CCc3ccccc3C2)c2ccccc21 | -3%
O=C(Nc1ccc(F)cc1F)NC1CC(=O)N(Cc2ccccc2)C1 (stereo not drawn) | 8%
CCOC(=O)N1CCC(NC(=O)CSCc2nc(-c3ccc(OC)c(OC)c3)oc2C)CC1 | 32µM*
CCN(CC)c1cccc(OCC(=O)N(C)CCC#N)c1 | -12%
Cc1ccc(NC(=O)C2CCN(C(=O)NC3CCCCC3)CC2)cc1Cl | 8%
CC(=O)O[C@]1(C)N=NC2(CCCCC2)O1 | 9%[11.4 µM]
CCN(C1CCCCC1)S(=O)(=O)c1ccc(S(=O)(=O)NCCc2ccncc2)cc1 | -3%
COc1ccc(C2c3c(oc4ccccc4c3=O)C(=O)N2c2ccccn2)cc1 (stereo not drawn) | 6%
CCN1CCN(Cc2ccc3c(c2)Cc2ccccc2-3)CC1 | 10%
CCCNC(=O)C(Cc1ccccc1)NS(=O)(=O)c1cccc2nsnc12 (stereo not drawn) | -5%
COc1ccccc1CCn1c(=O)c(-c2cc(F)cc(F)c2)nc2cncnc21 | 25%
C=CCNc1nc2c(c(=O)n(C)c(=O)n2C)n1Cc1ccc(F)cc1 | 7%
O=C1c2cccnc2C(Nc2ccc(S(=O)(=O)N3CCCCC3)cc2)N1Cc1ccccc1 (stereo not drawn) | 0%
O=C(O)c1ccc(COc2c(F)c(F)cc(F)c2F)cc1 | -13%
CCCN(CCC)C(=O)C1c2ccccc2Oc2ccccc21 | -1%
O=C(NCc1cccs1)c1ccncc1 | -21%
C[C@@H]1CC[C@H]2[C@H](C)[C@H]3[C@H](C[C@H]4[C@@H]5CC=C6C[C@@H](O)CC[C@@]6(C)[C@@H]5C[C@@H](O)[C@]34C)N2C1 | 6%[11.4 µM]
O=C1CC(N2CCN(c3ccccc3Cl)CC2)C(=O)N1c1cccc(F)c1 (stereo not drawn) | -7%
O=C(NCc1cccnc1)Nc1ccc(F)cc1F | 6%
COc1ccc(S(=O)(=O)N2CCC(C(=O)c3ccc4c(c3)OCCO4)CC2)cc1 | -15%
CN(C)C(=O)[C@H]1C[C@@H]1[C@H](NC(=O)OCc1ccccc1)c1ccccc1 | 14%
CC1(C(=O)NC2CCCC2)CCC(=O)N1CCC1=CCCCC1 (stereo not drawn) | 2%
Cc1cc(=O)[nH]c(SCC(=O)Nc2nnc(CC(C)C)s2)n1 | 2%
OB(O)c1ccc(Cl)s1 | 10%
CCOC(=O)c1ccc(NC(=O)c2nn(C)cc2Br)cc1 | ?
CCOC(=O)c1cc(CC)sc1NC(=O)CCC(=O)O | -7%
COc1ccc(NC(=O)c2ccc(-n3nc(C)c[n+]3[O-])cc2)cc1 | -11%
COc1ccccc1C(=O)n1nc(-c2ccccc2)nc1N | 219%[activator]
Next part.
SMILES | HSD17B inh
O=C(C1CN(S(=O)(=O)c2ccccc2)CCN1S(=O)(=O)c1ccccc1)N1CCCCCC1 (stereo not drawn) | 0%
COc1ccccc1CC(NC(C)=O)C(=O)N1CCN(C(=O)Nc2ccccc2Cl)CC1 (stereo not drawn) | 2%
O=C(c1ccco1)N1CCN(C(=O)C2CCCc3c2[nH]c2ccc(Cl)cc32)CC1 (stereo not drawn) | -1%
CCn1c(=O)cc(OCC(=O)Nc2ccc(Cl)cn2)c2ccccc21 | 2%
CCC1Oc2nc(SC)nnc2-c2ccccc2N1C(=O)c1ccccc1 (stereo not drawn) | -2%
Cc1nnc(NC(=O)CSc2nnc(-c3ccc(S(=O)(=O)N4CCCC4)cc3)n2C)s1 | 4%
COC(=O)C1(C#N)C(c2ccccc2)C1(C(=O)OC)C(=O)OC (stereo not drawn) | 2%
CSc1cccc(NC(=O)C2CCCN2S(=O)(=O)c2ccc3c(c2)CCC(=O)N3)c1 (stereo not drawn) | -11%
COc1ccc(C)cc1S(=O)(=O)N1CCCCC1 | -4%
C=CCSC1=C(C#N)C(c2ccccc2OCC)C(C#N)C(=O)N1 (stereo not drawn) | ?
COCCN(CCOC)c1nc(C)nc2c1nc(-c1ccccc1)n2CCN1CCCC1 | 32µM*
Nc1c(C(=O)c2ccc(F)cc2)oc2ccccc12 | -8%
S=c1[nH]nc(C23CC4CC(CC(C4)C2)C3)n1Cc1ccco1 | -5%
CCC(C(=O)NC(C)CCc1ccco1)n1nc(C)n2c(cc3occc32)c1=O (stereo not drawn) | -2%
O=S(=O)(NCCCN1CCN(c2ccccc2F)CC1)c1cccc2cccnc12 | 3%
COc1cccc(N2C(=O)CC(N3CCN(S(=O)(=O)c4ccccc4)CC3)C2=O)c1 (stereo not drawn) | -13%
CCCS(=O)(=O)N1CCCC(C(=O)NCCN2CCOCC2)C1 (stereo not drawn) | -3%
Cc1cc(NC(=O)CSc2nnc(COc3cccc(C)c3C)n2Cc2ccco2)no1 | 1%
COc1cccc(-c2nccc(NCc3ccccc3)n2)c1 | -2%
O=C(CSc1nnc2scc(-c3ccccc3)n12)c1ccc2c(c1)OCCO2 | -10%

An excerpt; the hit share may differ from the screen's.
